Source: PubChem (several laboratories)
Yeast UUG start – alters start codon recognition fidelity in yeast; S. cerevisiae UUG-firefly luciferase reporter, luminescence/redox ratio; actives 0.13% (n = 350,000); activity score, % at 18.7 µM; AID 602363;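 active = replicate mean at a twofold rise or more, about +100% in these data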;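 also: firefly luciferase made from a UUG start codon reports start codon fidelity; reporter light over untreated wells divided by growth signal over untreated wells; some hits fall short of that in this replicate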
HIV Env fusion – HIV envelope-mediated fusion inhibition; inhibition, % at 12.3 µM; HeLa-JRFL Env/CEM21 cell fusion, luciferase; actives 1.1% (n = 360,000); AID 651610;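 active = mean replicate inhibition score of at least 50 and every replicate individually at or above 50; inconclusive = only one of the two criteria met; inactive = mean below 50 and not all replicates reaching 50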;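 also: 0% = plate neutral controls and 100% = maraviroc near 300 nM; one replicate is shown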
Rce1 inh – yeast Ras-converting enzyme inhibition; calls only; actives 0.27% (n = 290,000); yeast membranes, quenched prenylated peptide cleavage fluorescence; Q03530; AID 2563;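 active = fall in fluorescence gain of 50% or more versus controls, with final raw signal at or below 3038400; inconclusive = same 50% fall but final raw signal above 3038400; inactive = fall in fluorescence gain under 50%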;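 also: plate controls were neutral control wells for no effect and wells lacking membranes for full effect; tested at 10 µM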
Target sequence (Q03530 whole entry, looked up): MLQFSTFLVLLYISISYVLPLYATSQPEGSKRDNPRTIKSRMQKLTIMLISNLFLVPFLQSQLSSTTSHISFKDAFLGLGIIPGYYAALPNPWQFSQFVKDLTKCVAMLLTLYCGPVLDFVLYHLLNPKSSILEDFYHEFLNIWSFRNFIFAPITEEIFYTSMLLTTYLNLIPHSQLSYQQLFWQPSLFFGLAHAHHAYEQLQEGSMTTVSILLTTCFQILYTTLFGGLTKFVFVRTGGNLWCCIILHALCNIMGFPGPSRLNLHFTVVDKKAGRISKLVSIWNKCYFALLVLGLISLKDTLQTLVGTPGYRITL
eIF4H FP inh – inhibitors of RNA binding by human eIF4H. actives 0.94% (n = 290,000). AID 2012. inhibition, % at 35 µM. eIF4H fluorescence polarization binding assay;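 active = 50% or more with normal probe brightness, or confirmed in later tests; inconclusive = above 50% with abnormal brightness, or retests that disagree; inactive = below 50% or failed in later tests; about a fifth of its hits are not listed in these tables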;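 also: calls also rest on retests at 20 µM and on dose response follow-up; 0% = protein and probe with vehicle and 100% = probe without protein; strong numbers were not always called active; many hits fall short of the cut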
MT1-MMP act inh – inhibitors of human MT1-MMP activation; HT1080 RFP-PRO-GFP cells, GFP/RFP ratio fluorescence, overnight; percent of plate control window, DMSO zero; GFP/RFP ratio change, % at 20 µM; actives 0.061% (n = 360,000); AID 651647;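 active = GFP/RFP ratio change of at least 30% with cell ATP level not reduced by more than half and red fluorescence within 50% of control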; also: strong numbers were not always called active
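Material: RFP-PRO-GFP reporter HT1080 cells. Dosing: single-point 20 µM compound, 1% DMSO. Controls: DMSO and RFP-L50D-GFP cell wells. Timing: cells overnight before dosing, compound overnight, 37 °C, 5% CO2. Measure: GFP/RFP fluorescence ratio.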
PABP polyA inh – PABP-poly(A) binding inhibition | actives 1% (n = 290,000) | PABP-poly(A) RNA binding, fluorescence polarization | inhibition, % at 35 µM;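 active = 50% or more with normal probe brightness, or confirmed in later tests; inconclusive = above 50% with abnormal brightness, or retests that disagree; inactive = below 50% or failed in later tests; about a fifth of its hits are not listed in these tables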;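 also: calls also rest on retests at 20 µM and on dose response follow-up; controls were probe without protein and protein plus probe with vehicle; some compounds called inactive have numbers as strong as hits; many hits fall short of the cut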
Target sequence (P11940 whole entry, looked up): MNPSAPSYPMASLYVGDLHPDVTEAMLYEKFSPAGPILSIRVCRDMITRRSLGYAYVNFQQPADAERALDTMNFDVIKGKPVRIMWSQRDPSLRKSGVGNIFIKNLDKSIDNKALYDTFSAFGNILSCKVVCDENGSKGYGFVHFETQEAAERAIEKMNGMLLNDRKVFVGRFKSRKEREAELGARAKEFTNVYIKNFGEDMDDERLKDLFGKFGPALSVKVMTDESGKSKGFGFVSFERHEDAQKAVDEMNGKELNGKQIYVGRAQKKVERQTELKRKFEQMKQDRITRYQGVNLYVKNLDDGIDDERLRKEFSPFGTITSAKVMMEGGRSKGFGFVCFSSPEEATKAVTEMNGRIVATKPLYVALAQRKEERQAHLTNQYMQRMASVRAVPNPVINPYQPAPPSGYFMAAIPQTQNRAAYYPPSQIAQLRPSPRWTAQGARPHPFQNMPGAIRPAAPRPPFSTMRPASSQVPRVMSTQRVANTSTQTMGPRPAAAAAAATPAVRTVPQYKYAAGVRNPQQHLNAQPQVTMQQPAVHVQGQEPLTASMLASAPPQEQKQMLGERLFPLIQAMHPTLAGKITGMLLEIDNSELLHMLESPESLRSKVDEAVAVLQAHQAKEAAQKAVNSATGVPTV
CSC inhib – cancer stem cell inhibition; cancer stem cell-like cells viability, luminescence; actives 1.1% (n = 300,000); inhibition, % at 7.5 µM; AID 2717;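 active = mean at 75% or more and at least half the replicates too; inconclusive = mean and replicates disagree; tested in HMLE shEcad cells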;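 also: 0% = median of negative and 100% = median of positive control wells; the first replicate is given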
eIF4H FP inh retest – second read-out of eIF4H FP inh, no call of its own (marks repeat the call); inhibition, %; compound at 20 µM; confirmation average;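 mean of two retest wells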
PABP polyA inh retest – further read-out of PABP polyA inh, marked with its call; inhibition, %; compound at 20 µM; confirmation repeats;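 mean of two retest wells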
MT1-MMP act inh RFP – also measured in MT1-MMP act inh; calls as there; RFP signal change, %; measured here: RFP expression control read;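 0 = vehicle wells; hits needed this value within 50% of zero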
* hit, by the source's call; i = inactive; u = inconclusive; x = no result given; & = joins results of further samples; [ ] = another dose, or the depositor's remark.

SMILES | Yeast UUG start | HIV Env fusion | Rce1 inh | eIF4H FP inh | MT1-MMP act inh | MT1-MMP act inh RFP | PABP polyA inh | CSC inhib | others
COc1ccc(NC(=O)N(C)C[C@H]2OCCCC[C@@H](C)Oc3ccc(N(C)C)cc3C(=O)N([C@H](C)CO)C[C@@H]2C)cc1 | -12&1 | -20 | x | x | 2 | 8 | x | x
CO/N=C/c1ccc(Oc2ccc(C)cc2)c([N+](=O)[O-])c1 | x | -7 | i | 24 | -2 | -5 | 5 | 3
Cc1ccc2[nH]c(=O)c(CNC(C)C)cc2c1 | x | x | i | 1 | 3 | 8 | 14 | x
CC(C)(C)NC(=S)NCc1cccnc1 | -26 | 23 | i | 13 | 3 | 4 | -2 | x
Cc1nc(C)n(CC(C)C(=O)N2CCN(S(=O)(=O)c3ccc(Cl)cc3)CC2)n1 (stereo not drawn) | -10 | 2 | i | 30 | -1 | 1 | 1 | 4
Cc1cccc2cc(C#N)c(SCc3nnc(-c4ccccc4[N+](=O)[O-])o3)nc12 | x | 7 | i | 4 | -10 | -3 | -11 | 1
CC(C)COC(=O)N(C)C[C@H]1OCc2cnnn2CCCC(=O)N([C@H](C)CO)C[C@@H]1C | 3&-1 | 5 | x | x | 0 | 4 | x | x
CC(OC(=O)CCc1ccccc1)C(=O)Nc1ccc(Cl)cn1 (stereo not drawn) | -18 | -5 | i | x | -2 | 0 | x | -11
O=C(COc1c(Cl)cccc1Cl)Nc1ccccc1N1CCCC1 | -10 | x | i | 8 | -1 | 1 | 45 | 69
O=C1[C@@H]2Cc3c([nH]c4ccccc34)C(c3cccc(Br)c3)N2C(=O)CN1C1CCN(Cc2ccccc2)CC1 (stereo partly drawn) | -14 | u | i | -3 | 4 | -6 | 3 | 82*
O=C1NC(c2cccnc2)C(C(=O)c2cccs2)C(O)(C(F)(F)F)N1 (stereo not drawn) | -10 | x | i | -3 | -3 | 1 | -2 | -12
OC(CNCc1ccco1)Cn1c2ccccc2c2ccccc21 (stereo not drawn) | -22 | -31 | i | -3 | -4 | -4 | -7 | 11
COc1ccc(OC)c(S(=O)(=O)NC(C)c2cnn(-c3ccccn3)c2C)c1 (stereo not drawn) | -16 | 1 | i | -10 | -5 | 2 | 2 | -1
CCC(C)NC(=O)CSc1nc2cc(S(=O)(=O)N3CCOCC3)ccc2n1CC (stereo not drawn) | x | -10 | i | x | 1 | 3 | x | -8
O=[N+]([O-])c1cc(S(=O)(=O)NCCN2CCOCC2)ccc1Cl | -11 | -2 | i | -6 | -4 | -5 | -8 | -7
Cc1nnc(SCC(=O)c2c(N)n(C)c(=O)n(C)c2=O)n1Cc1ccccc1 | -11 | -20 | i | -7 | 4 | -4 | -14 | 3
Cc1cccc(C)c1NC(=O)c1cccc2c1C(=O)N(C1CCCCC1)C2 | 2 | x | i | -11 | -11 | -8 | 10 | 9
O=C(C1=C[C@H](C2CC2)C[C@H](OCCCCO)O1)N1CCN(Cc2ccc3c(c2)OCO3)CC1 | -7&-3 | 1[16.7 µM] | i | 4 | -2 | -3 | -8 | 9
CCCc1nc(SCC(=O)N2CCC(Cc3ccccc3)CC2)c2c(=O)n(C)c(=O)n(C)c2n1 | -18 | 24 | i | -10 | -3 | -22 | -4 | 10
CCc1nc2c(OCCc3cccc(OC)c3)cccn2c1N(C)C(=O)c1ccc(OC)cc1 | -14 | 9 | x | x | -5 | -4 | x | x
N#Cc1cccc(NC(=O)c2cncn2-c2ccccc2)c1 | -22 | -5 | i | 7 | -2 | -2 | 9 | 4
c1ccc(-c2noc(COc3ccc4c(c3)OCO4)n2)cc1 | -15 | x | i | -1 | 1 | -4 | 7 | -9
CCCN1C2=C(C(=O)CCC2)C(c2ccc(O)c(Br)c2)C2=C1CCCC2=O | -15 | -13 | i | 47 | -6 | 1 | -7 | -2
CC(=O)c1ccc(N/N=C2/CCCNC2=O)cc1 | -10 | 0 | i | 0 | 0 | -2 | -2 | 14
COC(=O)CCC(=O)N1CCCC(CO)(Cc2ccccc2C)C1 (stereo not drawn) | x | 10 | i | -4 | -2 | 4 | 4 | -5
CN(C)CCCNC(=O)c1cc(C(=O)c2cccc(Cl)c2Cl)c[nH]1 | -14 | 17 | i | -4 | -1 | -1 | -4 | 22
O=C(CSc1nnc(NC(=O)c2ccccc2F)s1)Nc1ccccc1F | x | -22 | i | 10 | 2 | -1 | -4 | -4
O=C(N/N=C/c1ccc[nH]1)c1ccccc1OCc1ccc(F)cc1 | x | 0 | i | -1 | -1 | -2 | -15 | -6
Cc1ccc(CN2C(=O)c3ccccc3Sc3ccc(C(=O)NCCCN4CCOCC4)cc32)cc1 | -2 | 8 | i | x | -1 | 3 | x | 55
Clc1ccccc1Nc1nnc(-c2ccncc2)s1 | x | -11 | i | 3 | -10 | -8 | 8 | 70
O=C(Cc1ccccc1Cl)Nc1nc2ccccc2[nH]1 | -11 | 5 | i | 7 | -3 | 3 | -3 | -5
CN(CCc1ccccc1)C(CCc1ccccc1)C(=O)Nc1ccc2c(c1)OCCO2 (stereo not drawn) | -5 | -5 | x | x | 2 | -3 | x | x
COc1ccc(CC(=O)OCc2cc3ccccc3[nH]c2=O)cc1 | 2 | x | i | -8 | 3 | 3 | -8 | x
O=C(CC1SC(N2CCCCC2)=NC1=O)Nc1ccc(C(=O)O)cc1 (stereo not drawn) | -22 | 4 | x | x | -1 | 0 | x | x
COc1cc(OC)cc(C(=O)Nc2nc3ccccc3[nH]2)c1 | x | x | i | 9 | 14 | 6 | -2 | 5
CC1=CC(C)(C)N=C(NC#N)N1 | -12 | -44 | i | -6 | 3 | 2 | -13 | -26
CC1(C(=O)N2CCN(Cc3ccccc3Cl)CC2)CC1(Cl)Cl (stereo not drawn) | -1 | -37 | i | -1 | -1 | -5 | 0 | 4
COc1ccccc1N=c1oc2c(OC)cccc2cc1C(=O)NCc1ccco1 | -14 | x | i | 15 | 2 | 4 | 26 | -17
CC(C)(C)NC(=O)C(=O)NC(=O)c1c(F)cccc1Cl | 0 | 6 | i | -5 | 7 | 4 | -6 | -14
COc1ccc(-c2cc(C)no2)cc1S(=O)(=O)N1CCN(c2cccc(C)c2)C(C)C1 (stereo not drawn) | -21 | 35 | i | -11 | -2 | -27 | 8 | -1
CC(NC(=S)NC1CCCCC1)c1ccccc1 (stereo not drawn) | -28 | -9 | i | -4 | 4 | -12 | -8 | -2
C/C=C(/C)C(=O)Nc1cccc(C2=NOC3(C2)C[C@@H](C(N)=O)N(C(=O)c2ccc(OC)cc2)C3)c1 (stereo partly drawn) | 7 | 1 | i | 5 | -3 | 1 | 2 | -21
COCCCNC(=O)CN1C(=O)/C(=C/c2ccccc2)Sc2ccccc21 | -2 | -7 | i | -2 | 3 | 4 | -4 | -6
COc1ccc(NC(=O)CSc2nc3ccccc3nc2N2CCCCC2)cc1 | 7 | 28 | i | -4 | -3 | -6 | 0 | -1
OCC[C@H]1C[C@@H](O)[C@H](O)[C@]2(CCCc3ccccc3O2)O1 | -6 | -1 | x | x | 3 | 3 | x | -4
CCOC(=O)c1[nH]c(C)c(C(=O)NC)c1C | -9 | -5 | i | -20 | 2 | 4 | -17 | x
CC1=CC(C)(C)NC(=S)N1c1ccc2ccccc2c1 | -12&-25 | -13 | i | 23 | 5&4 | -6&-6 | 54 | -14 | eIF4H FP inh retest=-1;PABP polyA inh retest=2
CCCOc1ccc(CSC(CC(=O)O)C(=O)O)cc1 (stereo not drawn) | -14 | x | i | 1 | 5 | 11 | 5 | -11
O=C(Cc1ccc(NC2=NC3CS(=O)(=O)CC3S2)cc1)NCCc1ccccc1 (stereo not drawn) | -10 | -1 | i | -1 | 1 | 3 | -7 | -6
CC1([N+](=O)[O-])COC2(CCCCC2)OC1 | 4 | -11 | x | x | 0 | 2 | x | x
CC(C)c1ccc(NC(=O)Cn2ncn3c(cc4ccccc43)c2=O)cc1 | -16 | -2 | i | -2 | -1 | -1 | -13 | -6
O=S(=O)(c1ccc2ccccc2c1)N1CCN=C1SCc1cccnc1 | x | 21 | i | -3 | 0 | 2 | -12 | 15
O=C1C2C3C=CC(C3)C2C(=O)N1CCN1CCN(Cc2ccc([N+](=O)[O-])cc2)CC1 (stereo not drawn) | -4 | 16 | i | -2 | -1 | 0 | -12 | -10
CCOc1ccccc1N(CC(=O)N1CCc2ccccc2C1)S(C)(=O)=O | 15 | 0 | i | 5 | 0 | 1 | -5 | -12
Cn1c(Cn2c(=O)sc3ccccc32)nnc1SCc1ccc(F)cc1 | -9 | 19 | i | 2 | 1 | -2 | -9 | -1
CC(OCC(O)CN1CCCCC1CCO)c1ccc(Cl)cc1 (stereo not drawn) | -14 | 0 | i | 9 | -1 | 3 | 0 | 24
O=C(O)CCNS(=O)(=O)c1ccccc1Br | -11 | -14 | i | 2 | 1 | 1 | -4 | -4
N/C(Cc1cccs1)=N\OC(=O)COc1ccccc1Cl | 3 | x | i | -6 | -1 | -2 | -1 | -5
CC(OC(=O)c1cccn1C)C(=O)Nc1ccc2c(c1)OCO2 (stereo not drawn) | -21 | 10 | i | -2 | 0 | -3 | 5 | -7
Cc1cc(C)n(-c2nc(N(c3ccccc3)c3ccccc3)nc(-n3nc(C)cc3C)n2)n1 | x | x | i | 1 | 1 | -2 | -4 | -15

In the list so far, two have a thiophene ring, fused or not.
SMILES | Yeast UUG start | HIV Env fusion | Rce1 inh | eIF4H FP inh | MT1-MMP act inh | MT1-MMP act inh RFP | PABP polyA inh | CSC inhib | others
O=C1NC(c2cccnc2)C(C(=O)c2cccs2)C(O)(C(F)(F)F)N1 (stereo not drawn) | -10 | x | i | -3 | -3 | 1 | -2 | -12
N/C(Cc1cccs1)=N\OC(=O)COc1ccccc1Cl | 3 | x | i | -6 | -1 | -2 | -1 | -5

Carrying on:
SMILES | Yeast UUG start | HIV Env fusion | Rce1 inh | eIF4H FP inh | MT1-MMP act inh | MT1-MMP act inh RFP | PABP polyA inh | CSC inhib | others
Cc1ccc(-c2nc(CS(=O)CC(=O)NCCN(CC(C)C)CC(C)C)c(C)o2)cc1 (stereo not drawn) | -7 | 22 | i | -10 | 0 | -2 | 23 | -9
Cc1cc(F)ccc1S(=O)(=O)Nc1ccccc1C(=O)N1CCCC1 | -21 | x | x | x | -7 | -2 | x | -14
CC(C)(O)P(C)(=O)c1ccccc1 (stereo not drawn) | -8 | x | i | -2 | 3 | 5 | 18 | x
COC(=O)CC1C(=O)NCCN1C(=O)c1cc(OC)c(OC)cc1OC (stereo not drawn) | 3 | -17 | i | -6 | -3 | -1 | 4 | -9
Cc1nn(-c2ccccc2)c(=S)c2ccccc12 | x | -7 | i | -5 | 4 | 9 | -6 | -2
Cc1cccc(CC(=O)NCCN2CCOCC2)c1 | -13 | -4 | i | -6 | 0 | 2 | -13 | -10
COc1ccc(NC(=O)CSc2nnc(C3CCCCC3)o2)c(OC)c1 | -16 | 11 | i | -4 | 0 | -3 | 4 | x
CCOC(=O)c1[nH]c2ccc(OC)cc2c1NC(=S)N1CCN(c2ccccc2OC)CC1 | x | -8 | i | -5 | -3 | -16 | -7 | 1
Cc1c(N=C2C(=O)Nc3ccccc32)c(=O)n(-c2ccccc2)n1C | -13 | 5 | i | 18 | 0 | 4 | 20 | -9
COc1ccc(CN(C)c2ncnc3sccc23)c(OC)c1OC | 4 | 24 | i | 1 | -6 | -16 | -2 | 77*
Cn1cc(Cl)c(/C(N)=N/OC(=O)c2ccccc2C(F)(F)F)n1 | -20 | -32 | i | -15 | 5 | 3 | 7 | 2

The order is random; overall some 3% were active at least once.
